# HSD17B inhib: HSD17B dehydrogenase inhibition; Potency, µM (highest dose often 57.1 µM), for inactives: at the highest dose activity change, negative = inhibition, actives largely listed as inhibitors; Q99714; actives 7.6% (n = 75,000); recombinant HSD17B10, NADH fluorescence kinetic; many of its hits are not listed in these tables; active means well fitted inhibition curve with a large enough effect; inconclusive means small, poorly fitted or top-dose-only effect; inactive means no such curve, though single readings can be large or run the other way;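 further: the protocol describes HADH2 (HSD17B10) and not the HSD17B4 of the title; nearly all actives have a fitted effect of over 70% in size; most hits overshoot -100% by far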
#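 20 nM HADH2, pH 9.0 Tris/Tween; cpd preinc 15 min RT; start w/ 1 mM NAD+ + 90 uM b-hydroxybutyryl-CoA; kinetic fluor ex360/em450 q30s x 4 min; delta last-first.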
# * marks the source's active call; other numbers are inactive results; u = inconclusive; & = joins results of further samples; [ ] = dose if it differs, or a comment. On the % scale 0 is the no-effect control and ±100 the full control effect; potency means the concentration at half of the fitted maximal effect. An excerpt; rates above refer to the full screens.
SMILES,HSD17B inhib
CCC(=O)OC1CSc2nc3ccccc3n2C1 (centres undefined),-2%
CCc1nnc(NC(=O)CSc2nnc(-c3ccoc3C)n2CC(C)C)s1,25µM*
COc1cc(C2C(C#N)=C(N)Oc3n[nH]c(-c4ccccn4)c32)cc(OC)c1OC (centres undefined),9%
Cc1cccc(Cn2c(N(C)CCO)nc3c2c(=O)[nH]c(=O)n3C)c1,0%
Cc1cc(CN2C(=O)c3ccccc3C2=O)no1,2%
O=C(Nc1ccccc1)c1ccc(S(=O)(=O)NCc2ccco2)cc1,4%
COC(=O)CNS(=O)(=O)c1ccc(Cc2ccc(S(=O)(=O)NCC(=O)OC)cc2)cc1,3%
CCOCCCNC(=O)CN1C(=O)CSc2ccccc21,8%
CC(C)(C)SCCNC(=O)CN1C(=O)c2ccccc2S1(=O)=O,-9%
COc1ccc(N2CCN(CC(=O)Nc3cc4c(cc3C(C)=O)OCO4)CC2)cc1,-6%
CCCN(CCC)c1nc(C)cc(C(C#N)c2nc3ccccc3o2)n1 (centres undefined),10%
NC1(C(=O)O)CC(C(=O)O)C1 (centres undefined),0%&-7%
CCC1(CC)C(=O)NC(=O)NC1=Nc1cccc(OC)c1,3%
CCCOc1ccc(N2C(=O)CC(N3CCN(c4nc5ccccc5s4)CC3)C2=O)cc1 (centres undefined),-7%
O=C(O)CCCC(=O)OCCCCc1cccs1,-8%
CS(=O)(=O)N(Cc1ccco1)Cc1ccccc1Cl,1%
CCOC(=O)N1CCN(C(=O)CSc2nnc(CNC(=O)c3c(F)cccc3Cl)o2)CC1,3%
COC(=O)CSc1nnc(-c2ccncc2)n1N,0%
Cc1cc(=O)n2nc(-c3ccccc3)sc2c1C#N,13µM*
CN(C)S(=O)(=O)c1ccc(/C(O)=C2/C(=O)C(=O)N(Cc3cccnc3)C2c2ccco2)cc1 (centres undefined),-2%
CC(C(=O)N1CCCCC1)n1sc2ccccc2c1=O (centres undefined),6%
O=C(O)[C@@H]1[C@H](C(=O)O)[C@H]2C(=O)C=C[C@H]1N2Cc1ccccc1,1%[11.4 µM]
CCCOP(=O)(c1ccc(N(C)C)cc1)C(O)c1ccccc1OC (centres undefined),2%
Cc1cc(NC(=O)COc2ncnc3sc(C)c(C)c23)no1,15%
CCOC(=O)N1CCN(S(=O)(=O)c2cc(Br)cc3c2N(C(=O)CC)CC3)CC1,-9%
COc1ccc(-n2c(=O)c(-c3ccc(Cl)cc3)nc3cncnc32)cc1,12%
COc1ccc(CCNC(=O)c2cc(C(C)C)on2)cc1OC,4%
CN1CCN(CCCNC(=O)c2cc3c(=O)oc4ccccc4c3s2)CC1,u
Cn1c(=O)c2cn3c(c2n(C)c1=O)C(c1ccccc1)CC(c1ccccc1)=N3 (centres undefined),-13%
O=C(CCNS(=O)(=O)c1cccc2nsnc12)N1CCc2ccccc21,7%
CC(C)NC(=O)C(C)n1cccc1C(=O)c1ccccc1 (centres undefined),-3%
Cn1cnnc1SCC(=O)N1CCC(Cc2ccccc2)CC1,9%
O=S(=O)(Nc1cccc2cn[nH]c12)c1ccc(F)cc1,3%
Cc1ccccc1-c1nc(CS(=O)(=O)CC(=O)NCCCN2CCCC2)c(C)o1,10%
Cn1c(=O)c2c(nc(SCC(=O)O)n2Cc2cccc(C(F)(F)F)c2)n(C)c1=O,5%
O=C1CCc2cc(S(=O)(=O)N3CCN(c4cccc(Cl)c4)CC3)ccc2N1,9%
COc1ccc(C2C(C(=O)NC(C)C)c3ccccc3C(=O)N2C)cc1OC (centres undefined),25µM*
O=C(Nc1ccccc1)N1CCC2(CC1)CCN(C(=O)c1cccc(F)c1)CC2,5%
COc1cc(C(=O)N2CCN=C2c2ccccc2)cc(OC)c1OC,-5%
O=C(NC1CCCC1)c1cnn2c(C(F)(F)F)cc(-c3ccc4c(c3)OCO4)nc12,u
CCOC(=O)Cc1nc2ccccc2[nH]1,89%[activator]
Cc1ccc2[nH]c(=O)c(C(c3nnnn3C(C)(C)C)N(Cc3ccco3)CC3CCCO3)cc2c1 (centres undefined),20µM*
c1cc2c3c(c1)ccc1cccc(c13)C2,-4%
Cc1cccc2nc(Cn3c(=O)n(CCC(=O)NCc4ccco4)c(=O)c4sccc43)cc(=O)n12,u
Cn1c(CN2CCCC2)nc2cc(NC(=O)Nc3ccccc3)ccc21,2%
O=C(NCc1ccco1)c1cnc2ccccn2c1=O,u
O=C(NCc1ccc2c(c1)OCO2)c1cccc(S(=O)(=O)N2CCOCC2)c1,10%
COC(=O)c1ccc(N2CCN(C)CC2)c(NC(=O)COc2ccc(OC)cc2)c1,-22%
O=C1CC(=O)CC(c2ccccc2Cl)C1,10%
O=C(Nc1nc(-c2ccccc2)cs1)C1CCCN(S(=O)(=O)c2ccccc2)C1 (centres undefined),4%
O=C(O)c1ccc(Cl)c(NC(=O)C2CCCN2S(=O)(=O)c2cccc3nsnc23)c1 (centres undefined),-5%
Cc1cccc(C)c1NC(=O)C(c1cccs1)N(Cc1ccco1)C(=O)Cn1nnc2ccccc21 (centres undefined),-1%
CCSC1=C(C#N)C(c2ccccc2C)CC(=O)N1 (centres undefined),-7%
Cc1csc(NC(=O)CSc2ncnc3c2cnn3-c2ccccc2Cl)n1,1%
CC(C)C(=O)N(Cc1cc2ccccc2[nH]c1=O)C(C)(C)C,-21%
O=S(=O)(Nc1ccc2nc(-c3ccco3)[nH]c2c1)c1ccccc1,u
Cc1cc(Nc2ccccc2)n(C(=O)c2ccc(N)cc2)n1,-3%
O=C(CN1C(=O)C2CC=C(Cl)CC2C1=O)NCc1ccccc1 (centres undefined),1%
CN1C(=O)C2(C(C#N)=C(N)Oc3c2oc(CO)cc3=O)c2ccccc21 (centres undefined),-6%
Cc1ccccc1Nc1ncnc2c1cnn2-c1ccccc1,12%

# Shown bar-delimited: entries from further up.
mol | HSD17B inhib
COc1cc(C(=O)N2CCN=C2c2ccccc2)cc(OC)c1OC | -5%
O=C(NC1CCCC1)c1cnn2c(C(F)(F)F)cc(-c3ccc4c(c3)OCO4)nc12 | u
CCOC(=O)Cc1nc2ccccc2[nH]1 | 89%[activator]
Cc1ccc2[nH]c(=O)c(C(c3nnnn3C(C)(C)C)N(Cc3ccco3)CC3CCCO3)cc2c1 (centres undefined) | 20µM*
c1cc2c3c(c1)ccc1cccc(c13)C2 | -4%
Cc1cccc2nc(Cn3c(=O)n(CCC(=O)NCc4ccco4)c(=O)c4sccc43)cc(=O)n12 | u
Cn1c(CN2CCCC2)nc2cc(NC(=O)Nc3ccccc3)ccc21 | 2%
O=C(NCc1ccco1)c1cnc2ccccn2c1=O | u
O=C(NCc1ccc2c(c1)OCO2)c1cccc(S(=O)(=O)N2CCOCC2)c1 | 10%
COC(=O)c1ccc(N2CCN(C)CC2)c(NC(=O)COc2ccc(OC)cc2)c1 | -22%
O=C1CC(=O)CC(c2ccccc2Cl)C1 | 10%
O=C(Nc1nc(-c2ccccc2)cs1)C1CCCN(S(=O)(=O)c2ccccc2)C1 (centres undefined) | 4%
O=C(O)c1ccc(Cl)c(NC(=O)C2CCCN2S(=O)(=O)c2cccc3nsnc23)c1 (centres undefined) | -5%
Cc1cccc(C)c1NC(=O)C(c1cccs1)N(Cc1ccco1)C(=O)Cn1nnc2ccccc21 (centres undefined) | -1%
CCSC1=C(C#N)C(c2ccccc2C)CC(=O)N1 (centres undefined) | -7%
Cc1csc(NC(=O)CSc2ncnc3c2cnn3-c2ccccc2Cl)n1 | 1%
CC(C)C(=O)N(Cc1cc2ccccc2[nH]c1=O)C(C)(C)C | -21%
O=S(=O)(Nc1ccc2nc(-c3ccco3)[nH]c2c1)c1ccccc1 | u
Cc1cc(Nc2ccccc2)n(C(=O)c2ccc(N)cc2)n1 | -3%
O=C(CN1C(=O)C2CC=C(Cl)CC2C1=O)NCc1ccccc1 (centres undefined) | 1%

# Next section.
SMILES,HSD17B inhib
CCC(=O)c1cc(-c2nc3ccccc3n2C)n(C)c1,-3%
COc1cccc(C(=O)Nc2ncc3c(n2)CC(c2ccc(OC)cc2OC)CC3=O)c1 (centres undefined),-4%
Cc1cc(C)n(-c2nc3c(c(=O)[nH]c(=O)n3C)n2Cc2cccc(Br)c2)n1,3%
COCCN1C(=O)C(CC(=O)Nc2ccc(C(C)=O)cc2)SC1=Nc1ccccc1 (centres undefined),-14%
CCOC(=O)N1CCN(C(=O)CN(c2cccc(C(F)(F)F)c2)S(C)(=O)=O)CC1,19%
O=C(NCCCn1ccnc1)Nc1ccc(Cl)cc1,3%
Cc1nn(C)c(C)c1NC(=O)CN1CCC(O)(c2ccc3c(c2)OCO3)CC1,7%
COc1ccc(CCN2C(=O)CC(N3CCOCC3)C2=O)cc1 (centres undefined),2%
COc1ccccc1N(C(=O)CNS(=O)(=O)c1ccccc1)C(C(=O)NCc1ccco1)C(C)C (centres undefined),10%
CC1=C(C(N)=O)C(c2cccnc2)n2nc(SCc3ccccc3Cl)nc2N1 (centres undefined),-7%
Cc1cc(OCCCn2ccnc2)cc(C)c1Cl,u
Cn1ccnc1SCC(=O)Nc1ccc2ccccc2c1,-1%
O=C1CCC(C(=O)O)(c2ccccc2)C1 (centres undefined),5%
Oc1ccc(C2Oc3cc(O)cc(O)c3CC2O)cc1 (centres undefined),1%
CC(=O)NCCNc1cc(-c2ccccc2CN(C)C)ncn1,-25%
O=c1/c(=C\c2cccnc2)sc2nc3ccccc3n12,-7%
c1ccc(-n2ncc(-c3nn[nH]n3)n2)cc1,32µM*
CCOc1ccccc1N,0%
Cc1ccc(-n2c(Cc3cccn3C)nnc2SCC(=O)N2CCN(c3ccccc3)CC2)cc1,-6%
Cc1c(-c2ccccc2)c(P(=O)(N2CCOCC2)N2CCOCC2)c2ccccn12,25µM*
CC1(NC(=O)C23CC4CC(CC(C4)C2)C3)CCS(=O)(=O)C1 (centres undefined),12%
CCOC(=O)c1sc(NC(=O)CSc2nnnn2-c2ccc(C)cc2C)nc1C,3%
CCCn1c(C)nc2c(NCCCN(CC)CC)nc(C)nc21,6%
Cn1c(C2=C(O)CN(c3ccc4c(c3)OCCO4)C2=N)nc2ccccc21,0%
Cc1ccc(NC(=O)NC(=O)CN2C(=O)NC3(CCc4ccccc43)C2=O)c(C)c1 (centres undefined),1%
C/C(O)=C(/C#N)c1nc2ccccc2[nH]1,6%
CC(OC(=O)CCCN1C(=O)c2ccccc2C1=O)C(=O)Nc1ncc(Cl)cc1Cl (centres undefined),3%
Cc1nc(N2CCOCC2)c2nc(-c3ccccc3)n(CCN3CCCC3)c2n1,25µM*
CCC(c1nnnn1Cc1ccco1)N1CCC(C(N)=O)CC1 (centres undefined),3%
CC(C)CN1CCCC2(CCN(C(=O)c3cnccn3)CC2)C1,3%
COc1ccc(Cn2nnnc2C(c2ccccc2OC)N2CCC(C(N)=O)CC2)cc1 (centres undefined),u
COC(=O)C(CC(=O)Nc1cc(C)ccc1C)Nc1ccccc1OC (centres undefined),10%
O=c1nc2n(c3c1oc1ccccc13)Cc1ccccc1-2,4µM*
O=C(Cc1ccc(-n2cccc2)cc1)NC1CCCCC1,-5%
CCN(CC)CCCCn1c(-c2ccccc2)nc2c(N3CCOCC3)nc(C)nc21,20µM*
O=C(c1ccccc1)c1cc2ccccc2o1,-19%
COc1ccccc1CN1CC(C(=O)NCc2cccnc2)CC1=O (centres undefined),6%
CCOc1ccc2nc(NC(=O)CSC3=NCCS3)sc2c1,1%
CCOC(=O)C1C(=O)NC(SC)=C(C#N)C1c1ccccc1F (centres undefined),-2%
Cn1c(=O)c2c(nc(CN3CCC(C(N)=O)CC3)n2Cc2ccccc2Cl)n(C)c1=O,-6%
Cc1nc(NCC2CCCO2)c2oc3ccccc3c2n1 (centres undefined),-19%
Cc1cccc(OCCCCCn2ccnc2)c1,3%
O=C(NCc1ccc(F)cc1)C1CCC(=O)N1CCc1ccccc1 (centres undefined),-4%
CC(C)(C)S(=O)(=O)c1ccccc1C(=O)O,2%
COc1ccccc1NC(=O)C(C)N1CCN(C/C=C/c2ccccc2)CC1 (centres undefined),-4%
CN(C)/C=C1\C=C(c2ccccc2)OC1=O,-25%
COc1cccc2cc(C(C)N(CCCN3CCOCC3)C(=O)Nc3ccccc3)oc12 (centres undefined),0%
Cc1nc2ccccc2c2oc(C(=O)N3CCN(C4CCCCC4)CC3)cc12,-21%
CCOc1ccc(OCC)c(NC(=O)C2COc3ccccc3O2)c1 (centres undefined),7%
O=C(O)C[C@H](Cc1ccccc1Cl)C(=O)O,6%[11.4 µM]
Cc1ccc(Cl)cc1N1CCN(Cc2nc3c(c(=O)[nH]c(=O)n3C)n2Cc2ccccc2F)CC1,12%
CCN1C(C)=C(C(=O)OC)C(c2ccccc2)N2C(=O)[C@](O)(C(=O)OC)C(c3ccccc3)C(C(C)=O)=C12 (some centres undefined),6%[11.4 µM]
CCn1c(CNc2ccccc2Cl)nnc1SCC(=O)OC1CCCCC1,-6%
O=C(Cn1cnc2c(cnn2-c2ccccc2)c1=O)OCc1ccccc1,-6%
CCOC(=O)CSC1=C(C#N)C(c2ccccc2)C(C(C)=O)=C(C)N1 (centres undefined),1%
Cc1nc(SCC(=O)Nc2ccccc2C(F)(F)F)c2c(=O)n(C)c(=O)n(C)c2n1,18%
O=C(NCc1cccnc1)C1c2ccccc2C(=O)N1C1CCCCCC1 (centres undefined),8%
COCCCN1C(=O)c2ccc(C(=O)Nc3ccc(OC)cc3OC)cc2C1=O,0%
N/C(=N\c1nc2ccccc2o1)NC(=O)C(Cc1ccccc1)N1C(=O)c2ccccc2C1=O (centres undefined),-10%
O=C(C1CCCN(Cc2cccs2)C1)N1CCCCCC1 (centres undefined),-1%

# The results go on:
SMILES,HSD17B inhib
c1nnc(NCNc2nncs2)s1,2%[11.4 µM]
COc1ccc(C(O)C(CC(=O)NCCCOC(C)C)C(=O)NCCCOC(C)C)cc1OC (centres undefined),11%
COc1ncc2nc(CCc3ccccc3)c(=O)n(C3CC3)c2n1,-2%
CC(=O)N1C(=O)C(=C2C=C(C)OC(C)=C2)c2ccccc21,3%

# Assay outcomes (PubChem)
